Screening results as filed in PubChem.
gsp antagonist – gsp mutant antagonism; gsp-mutant cells, cAMP HTRF, 30 min; control for the full effect not named in the record; Potency, µM (series often up to 76.9 µM), for the others: top-dose activity change, negative = inhibition, most hits filed as inhibitors; 340,000 tested, 0.4% active; AID 624288; active = falling curve of any shape with a large fitted effect; inconclusive = falling curve, mostly with a smaller effect; inactive = flat or rising curve; cell line not stated here;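 note: intracellular cAMP measured with PDE inhibitor Ro 20-1724 present during compound exposure; potency is the fitted concentration of half-maximal effect; % is set by controls: 0 for no effect and ±100 for the full control effect; nearly all actives have a fitted effect of over 65% in size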
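HTRF cAMP measurement after 30 min RT detection following 30 min, 37C compound treatment alongside […] (added as 300 uM solution) in G418-selected cells seeded at 2000/well and grown 16–24 h.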
Six1-Eya2 inh – Six1/Eya2 interaction inhibition; Q15475+O00167; AlphaScreen GST-Six1/His-Eya2 binding, biochemical; hits give low values; control for the full effect not named in the record; AID 651725; 360,000 tested, 0.56% active; activity change, % (test concentration not listed); in the data active = activity change below about -65%; inconclusive = about -30% to -65%; inactive = above about -30%; note: % is set by controls: 0 for no effect and ±100 for the full control effect; compound concentration not given in the record
Target sequence (O00167 whole entry, looked up): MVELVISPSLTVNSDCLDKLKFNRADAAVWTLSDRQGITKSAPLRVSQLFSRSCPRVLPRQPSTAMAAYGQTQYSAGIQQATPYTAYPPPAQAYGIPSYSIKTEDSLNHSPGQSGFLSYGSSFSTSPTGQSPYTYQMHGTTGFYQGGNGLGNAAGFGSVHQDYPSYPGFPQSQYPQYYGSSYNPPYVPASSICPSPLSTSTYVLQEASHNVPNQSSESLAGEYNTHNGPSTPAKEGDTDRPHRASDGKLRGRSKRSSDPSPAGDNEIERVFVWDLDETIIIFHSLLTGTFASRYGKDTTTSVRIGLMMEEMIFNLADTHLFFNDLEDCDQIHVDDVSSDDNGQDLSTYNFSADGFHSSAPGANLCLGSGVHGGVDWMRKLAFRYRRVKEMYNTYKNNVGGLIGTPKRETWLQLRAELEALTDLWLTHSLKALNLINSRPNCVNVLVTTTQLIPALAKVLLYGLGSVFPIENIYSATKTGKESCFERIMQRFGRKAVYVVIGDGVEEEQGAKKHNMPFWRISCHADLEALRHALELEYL
Target sequence (Q15475 whole entry, looked up): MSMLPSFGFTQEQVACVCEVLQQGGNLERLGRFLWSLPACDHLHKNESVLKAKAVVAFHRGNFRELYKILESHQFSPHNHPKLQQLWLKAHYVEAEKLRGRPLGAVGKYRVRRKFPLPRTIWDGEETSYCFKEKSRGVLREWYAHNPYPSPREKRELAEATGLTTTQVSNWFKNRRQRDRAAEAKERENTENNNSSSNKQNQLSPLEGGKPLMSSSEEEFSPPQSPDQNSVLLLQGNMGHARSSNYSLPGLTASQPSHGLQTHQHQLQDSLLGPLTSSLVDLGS
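AlphaScreen luminescence read after one hour at 37 °C in darkness. Pin-transferred compounds met GST-Six1 and His-Eya2 protein (5X stock 250 nM/500 nM) plus glutathione donor and Ni-chelate acceptor beads (5X, 50 ug/mL).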
CtBP-E1A blk – CtBP/E1A binding inhibition; AlphaScreen GST-E1A/His-CtBP binding, 1536-well; hits give low values; control for the full effect not named in the record; activity change, % (no concentration beside the values); 340,000 tested, 0.49% active; in the data active means activity change below about -65%; inconclusive means about -30% to -65%; inactive means above about -30%; note: % is set by controls: 0 for no effect and ±100 for the full control effect; compound concentration not given in the record
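Protein mix (5X: 125 nM each GST-E1A, His-CtBP) was incubated with pinned compound 2 h at 37 deg C in dark, in 50 mM Tris pH 8.0 buffer with 300 mM NaCl. Glutathione donor and nickel acceptor beads followed; AlphaScreen signal read after 1 h.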
gsp agonist – agonists of gsp mutant (McCune-Albright syndrome). gsp mutant cells, cAMP HTRF, 30 min; control for the full effect not named in the record. Potency, µM (highest dose often 76.9 µM), without a hit: at the highest dose activation (cAMP increase), usual class: activators. 340,000 tested, 0.13% active; active = well fitted activation curve with a large enough effect; inconclusive = small, poorly fitted or top-dose-only effect, or another doubt; inactive = no such curve, though single readings can be large or run the other way; cell line not stated here;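 note: phosphodiesterase inhibitor Ro 20-1724 added with compounds to block cAMP breakdown; potency is the fitted concentration of half-maximal effect; nearly all actives have a fitted effect of over 60% in size; about a fifth of the inactives were tested at one dose only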
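Cells in DMEM/10% FBS with G418 were pretreated with compounds in DMSO plus […] (300 uM stock) for 30 min at 37C. cAMP was measured by HTRF (cAMP-d2 plus anti-cAMP antibody-K) after 30 min at room temperature.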
D2 potentiator – positive allosteric modulators of human D2 dopamine receptor. P14416. DiscoveRx D2 beta-arrestin cells, luminescence, 90 min; 100% = 57 uM dopamine signal. potentiation, % (concentration not given with the values). 360,000 tested, 0.23% active; active = potentiation of 50% or more; inconclusive = 30% to 50%; inactive = 30% or less;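 note: compound concentration not given in the record; tested on top of an EC20 dose of dopamine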
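PathHunter D2 cells, attached overnight at 37 deg C, received compound in DMSO plus dopamine at EC20 (50 nM final) for 90 min at 37 deg C. Beta-arrestin recruitment was read as luminescence after 1 h with detection reagent at ambient temperature.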
D2 ag – agonists of human D2 dopamine receptor (beta-arrestin). P14416. DiscoveRx PathHunter D2 beta-arrestin, luminescence, 90 min; 100% = 57 uM dopamine signal. activation, % (concentration not given with the values). 360,000 tested, 0.084% active; in the data active = activation above about 40%; inconclusive = about 15% to 40%; inactive = below about 15%; note: compound concentration not given in the record; the text of the record calls up to 30% inactive
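Agonist mode: compounds alone added to overnight-plated D2 PathHunter cells for 90 min at 37 C, with 57 uM final dopamine (EC100) defining full response. Beta-arrestin recruitment detected by chemiluminescent reagent, read after 1 h at ambient temperature.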
An asterisk follows results filed as active; u = inconclusive; x = no result given; [ ] = remark or other dose. Outcome played no part in choosing rows; overall some 1.4% were active at least once.

The line under a structure holds: gsp antagonist	Six1-Eya2 inh	CtBP-E1A blk	gsp agonist	D2 potentiator	D2 ag
Cc1ccccc1CS(=O)(=O)Cc1ccc(C(=O)NCc2ccccn2)o1
  -9.3%	-18.5	u	13.7%	12.7	-1.6
Cc1cccc(-c2nc3ccccc3c(=O)n2NC(=O)c2ccc([N+](=O)[O-])c(C)c2)c1
  -4.0%	2.7	-7.7	-7.0%[15.4 µM]	1.2	-6.3
NS(=O)(=O)c1cccnc1Nc1c(Cl)cccc1Cl
  3.5%	8.0	-0.8	-10.7%	-5.5	-1.2
Nc1ccc(C(=O)N/N=C\C=C\c2ccc([N+](=O)[O-])cc2)cc1
  0.9%	-9.4	-1.3	30.5%	10.6	12.6
CCOc1cc([N+](=O)[O-])cc2c1C(=O)Nc1ccccc1O2
  -14.6%	-2.7	x	-27.6%	3.7	10.8
COc1ccccc1C(=O)NNC(=O)c1ccccc1Br
  8.2%	4.1	-1.8	-16.0%	-3.4	-1.1
CC(=O)c1ccc(OCC(=O)Nc2ccc3nc(C)sc3c2)cc1
  -6.7%	-1.0	-0.4	11.7%[15.4 µM]	1.6	-5.7
Nc1cc(Cl)ccc1CN1C(=O)c2ccccc2C1=O
  x	0.8	3.1	x	2.7	-6.5
COc1cccc(NC(=O)CCS(=O)(=O)c2ccc3c(c2)oc(=O)n3C)c1
  -6.7%	3.3	-7.3	-0.4%	-3.4	-1.8
O=C1COc2ccc(C(=O)CCl)cc2N1
  -8.9%	4.5	0.7	3.4%	-7.9	-2.0
Cc1ccccc1NC(=O)C(C)OC(=O)CNS(=O)(=O)c1ccc(C#N)cc1 (configuration not stated)
  5.4%	0.6	5.4	-51.3%	6.2	-1.9
CC(=O)NC1C(Oc2ccccc2C)OC(CO)C(O)C1O (configuration not stated)
  2.0%	-12.5	4.0	u	-2.7	-0.8
Cc1ccc(OCC(=O)Nc2ccc(NC(=O)c3ccccc3)cc2)cc1C
  3.7%	-2.0	-8.7	-2.2%[15.4 µM]	-5.3	-0.2
CN(C(=O)CSc1nc2ccccc2c(=O)n1C)C1CCS(=O)(=O)C1 (configuration not stated)
  -0.1%	2.3	0.7	12.2%	-2.4	1.6
COc1cc(-c2nc(CN(C)C(C)c3ccncn3)c(C)o2)ccc1F (configuration not stated)
  6.7%	-2.2	-0.5	-14.2%[15.4 µM]	0.0	-4.1
Cc1ccc(S(=O)(=O)Nc2cc(C)cn(Cc3ccccc3)c2=O)cc1
  -15.9%	-4.5	0.9	8.4%	-7.3	-4.1
Cc1c(C(=O)Nc2ccc(C(=O)O)cc2)cnn1C
  u	3.5	1.1	-1.7%	8.3	-0.6
O=C(Nc1ccc(S(=O)(=O)NC2=NCCCCC2)cc1)c1cccc(S(=O)(=O)N2CCOCC2)c1
  9.5%	-1.0	1.7	1.5%[15.4 µM]	3.0	0.0
CCC1=C(OC(=O)N(CC)CC)N2C(=O)OC(=NCC3CC3)[C@]2(Cc2ccccc2)[C@H]2C1=CC[C@H]1C(=O)N(CC(=O)OC)C(=O)[C@H]12
  -17.9%	-1.3	x	2.8%	-6.3	-4.6
Cc1cccc([C@@H]2[C@@H]3C(=O)N(Cc4ccccc4)C(=O)[C@@H]3[C@]3(Cc4ccccc4)C(=O)N(c4ccc(C(F)(F)F)cc4)C(=O)N23)c1
  -3.7%	-1.8	-2.2	-3.3%	-7.0	-4.0
Cc1ccc(NC2CCCN(C(=O)c3cc(C(C)C)nn3C)C2)cc1C (configuration not stated)
  x	-4.1	-6.3	-14.6%	-21.6	-1.8
CCOc1ccc(NC(=O)CN(C)C(=O)c2c(-c3c(F)cccc3Cl)noc2C)cc1OCC
  -4.6%	-7.3	-12.3	-56.2%[15.4 µM]	8.5	0.2
CC(=O)c1cnc(-c2cccc(Cl)c2)s1
  5.0%	0.2	22.2	-17.2%	-3.2	-3.3
CC(=O)C1=C(O)C(=O)N(Cc2ccccc2)C1c1ccc(N(C)C)cc1 (configuration not stated)
  -17.0%	-0.1	x	-11.9%	-16.7	-3.6
O=[N+]([O-])/C=C/c1ccc2c(ccn2Cc2ccccc2)c1
  16.3%	-1.8	x	u	26.2	1.1
O=[N+]([O-])c1ccc(/C=N/NS(=O)(=O)c2ccc(Cl)cc2)o1
  2.5%	-6.8	0.0	u	3.3	-5.6
COc1ccc(CC(=O)Nc2ccccc2C(=O)NCCc2ccccc2)cc1
  -18.3%	1.2	5.6	12.8%	0.7	3.0
O=[N+]([O-])c1cc(S(=O)(=O)Nc2ccccc2)ccc1N1CCN(c2ccc(O)cc2)CC1
  -8.5%	-16.4	-2.8	-62.3%[inhibitor]	-3.1	-0.9
CC(C)c1ccccc1OCC(=O)NN1C(=O)c2ccccc2C1=O
  -3.8%	4.0	5.5	-0.9%[15.4 µM]	1.1	-0.6
CCCc1cc(NCCCN2CCOCC2)n2c(nc3ccccc32)c1C#N
  12.3%	2.8	1.9	u	-3.6	-0.5

Next results follow.
The line under a structure holds: gsp antagonist	Six1-Eya2 inh	CtBP-E1A blk	gsp agonist	D2 potentiator	D2 ag
CC(=O)Nc1ccc(NC(=O)C(Cc2ccccc2)NC(=O)C2CCC(C)CC2)cc1 (configuration not stated)
  13.1%	-0.7	13.5	-30.1%[inhibitor]	-5.5	-3.3
COCCn1cc(C(=O)c2cc(Br)ccc2O)cc(C#N)c1=O
  -9.1%	0.8	2.3	-9.7%[15.4 µM]	0.3	2.6
O=C(c1cnccn1)N1CCc2ccccc2C1
  6.2%	5.1	5.6	4.1%[15.4 µM]	0.8	-1.5
N=c1c(C(=O)NCCN2CCOCC2)cc2c(=O)n3ccccc3nc2n1CCCN1CCOCC1
  -9.4%	-8.1	-14.4	15.7%	-13.2	-7.9
Cc1cccc(CNS(=O)(=O)c2ccc(-c3cnc(C4CC4)o3)cc2)c1
  -1.1%	-0.2	1.7	20.2%	-2.5	2.7
O=C(C1CCN(C2CC(=O)N(c3cccc(Cl)c3)C2=O)CC1)N1CCCCCC1 (configuration not stated)
  1.1%	-6.2	7.1	21.7%	-12.6	-0.3
COc1ccc(N(C(=O)c2cc3ccccc3oc2=O)C2C=CS(=O)(=O)C2)cc1 (configuration not stated)
  -4.9%	-5.5	3.1	4.6%[15.4 µM]	-4.8	-3.7
O=C(NCc1ccc(Cl)cc1)C1CCN(C(=O)c2ccco2)CC1
  0.0%	3.3	-11.0	-22.8%	-3.2	-4.0
CNc1oc(-c2ccccc2F)nc1S(=O)(=O)c1ccc(C)cc1
  -11.3%	-2.6	0.0	-3.7%[15.4 µM]	-22.4	-3.1
CC(=O)c1ccc(OCc2nnn(CC(=O)NS(=O)(=O)c3ccc(C)cc3)c2-c2ccccc2)cc1
  x	-4.8	4.3	x	-2.4	-4.3
Cc1ccccc1C(=O)O/N=C(\N)c1ccncc1
  13.5%	8.2	-2.8	4.0%[15.4 µM]	29.5	9.6
Cc1cc(N2CCN(c3ccccn3)CC2)n2c(nc3ccccc32)c1C#N
  -0.8%	-10.0	1.8	14.9%[15.4 µM]	-17.3	-6.8
CCOC(=O)c1cc(=O)n(-c2ccc(Cl)cc2C)[nH]1
  -1.1%	5.0	9.8	-23.1%	-2.3	2.3
CN(C)S(=O)(=O)c1cccc(NC(=O)c2cc([N+](=O)[O-])ccc2N2CCCCC2)c1
  -9.1%	-17.8	-23.2	0.1%	0.1	4.4
COC(=O)C[C@H]1C[C@@H]2c3cc(NC(=O)NC4CCCC4)ccc3O[C@@H]2[C@@H](CO)O1
  x	-2.4	1.3	26.4%	x	-0.2
CC1CCN(C(=O)c2ccc(S(=O)(=O)Cc3cccc(F)c3)c([N+](=O)[O-])c2)CC1
  -1.1%	-3.0	-0.4	-29.7%	13.7	5.1
O=C(Nc1cccc(/C=C/c2ccccn2)c1)c1ccc(-n2cncn2)c([N+](=O)[O-])c1
  39.8µM*	-29.9	1.2	-2.0%[15.4 µM]	62.8*	7.3
CCCC(=O)Nc1ccccc1-c1nnc(SCC)[nH]c1=O
  -2.1%	3.6	1.3	-5.8%	4.1	-7.6
CC(C)COc1ccc(C2NC(=O)NC2=O)cc1 (configuration not stated)
  1.9%	4.8	-7.0	-54.8%[inhibitor]	-4.3	-4.9
COc1ccccc1OCCNC(=O)C(CCSC)NC(=O)c1ccccc1Cl (configuration not stated)
  -1.4%	-5.7	11.5	-94.2%[inhibitor]	-20.8	-4.9
COc1cccc(/C=C/C(=O)N(C)CC(=O)Nc2ccc(Cl)c(C(F)(F)F)c2)c1
  -19.5%	30.1	0.7	-4.2%[15.4 µM]	-6.4	-7.3
COc1ccccc1C(=O)NCCNc1nc2cc(C)cc(C)c2cc1C#N
  -14.5%	0.9	x	-9.3%	-1.4	2.6
CCCNc1c(NS(=O)(=O)c2ccc3c(c2)CCCC3)c(=O)oc2ccccc12
  u	-7.8	2.0	-8.4%	-11.0	2.0
Cc1c(Cc2ccccc2)c(=O)oc2cc(OCc3nn[nH]n3)ccc12
  u	-26.1	-11.4	-15.0%	-16.8	-2.1
CC(=O)Nc1ccc(NC(=O)CSc2n[nH]c(-c3cccs3)n2)cc1
  1.1%	-11.0	-1.9	-3.5%	-10.2	-3.2
COC(=O)c1c(NC(=O)/C=C/C(=O)O)sc(C)c1-c1ccc(C(C)C)cc1
  -13.9%	-10.3	-12.8	4.2%[15.4 µM]	1.4	-7.7
COc1cccc(NC(=O)c2ccnc(N3CCC(C(=O)NCc4cc(OC)ccc4OC)CC3)c2)c1
  -19.8%	-9.6	-14.0	-1.3%	6.7	-0.6
CCN(CC)C(=O)CSc1nc2c(c(-c3cccnc3)c1C#N)CCCC2
  -16.5%	0.2	6.2	-34.1%[inhibitor]	-9.3	0.2
CC(C)NC(=O)N(C)C[C@H]1Oc2ccc(NS(=O)(=O)c3ccccc3)cc2C(=O)N([C@H](C)CO)C[C@@H]1C
  2.3%	9.4	5.8	-8.9%	-3.7	-1.9
COc1ccc(N(CC(=O)NCc2ccccc2OC)S(=O)(=O)c2ccccc2)cc1
  -17.9%	-6.8	0.0	-0.3%	1.0	-0.4
CC(=O)c1ccc(S(=O)(=O)Nc2cccc(-c3ccc4nncn4n3)c2)cc1
  5.0%	-3.9	-5.8	30.3%[15.4 µM]	-2.9	-0.5
CN(C)S(=O)(=O)c1ccc(S(=O)(=O)N(CC(=O)Nc2ccccc2)Cc2ccco2)cc1
  2.7%	6.8	0.5	-15.2%	3.3	1.9

An excerpt from above, showing only Six1-Eya2 inh, CtBP-E1A blk and D2 ag:
smiles	Six1-Eya2 inh	CtBP-E1A blk	D2 ag
CN(C)S(=O)(=O)c1cccc(NC(=O)c2cc([N+](=O)[O-])ccc2N2CCCCC2)c1	-17.8	-23.2	4.4
COC(=O)C[C@H]1C[C@@H]2c3cc(NC(=O)NC4CCCC4)ccc3O[C@@H]2[C@@H](CO)O1	-2.4	1.3	-0.2
